Compound activity (PubChem BioAssay)
TRPML1 inh: qHTS for Inhibitors of the Human Mucolipin Transient Receptor Potential 1 (TRPML1) | TRPML1-inducible cells, Ca2+ dye fluorescence, FDSS; active compounds read low; inhibition of EC80 agonist-evoked calcium signal | AID 624415, 2012 | 390,000 compounds, 0.02% hits | Mucolipin-1 (Homo sapiens), Q9GZU1 | activity change, negative = inhibition, % (no concentration beside the values); in the data active means activity change below about -50%; inconclusive means about -30% to -50%; inactive means above about -30%;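 further: stimulus is agonist 54-4 at its EC80 concentration; on the % scale 0 is the no-effect control and ±100 the full control effect; compound concentration not given in the record; the text of the record puts the active cut at -80%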
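TRPML1-DL cells, Tet-induced overnight (~16 h, 37 °C) at 1,500 cells/well, were loaded with Ca8 no-wash dye plus quencher for 45-90 min at room temperature. Compounds were pinned during FDSS kinetic reading; agonist 54-4 at EC80 (4 uM final) then added.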
PINK1 modulator: A Quantitative High throughput Screen to Identify Chemical Modulators of PINK1 Expression | PINK1 immunofluorescence, high-content cytometry, 24 h | Potency, µM (highest dose often 76.6 µM), without a hit: at the highest dose activation (PINK1 increase), most hits filed as activators | 410,000 compounds, 0.2% hits; active = well fitted activation curve with a large enough effect; inconclusive = small, poorly fitted or top-dose-only effect; inactive = flat fitted curve, though single readings scatter; cell line not stated here;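 further: potency means the concentration at half of the fitted maximal effect; % of control where 0% means no effect; nearly all actives have a fitted effect of over 65% in size; a mitochondrial uncoupler was the plate control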
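A stable cell line was treated with compounds at 5 concentrations for 24 hours, with CCCP as control. PINK1 levels and mitochondrial localization were measured by immunofluorescence with mitochondrial, cell and nuclear markers after fixation, read by laser-scanning cytometry.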
D2 potentiator: Beta-Arrestin HTS for Positive Allosteric Modulators of the Human D2 Dopamine Receptor: Potentiators | D(2) dopamine receptor (Homo sapiens), P14416 | DiscoveRx D2 beta-arrestin cells, luminescence, 90 min; 100% = 57 uM dopamine signal | potentiation, % (concentration not given with the values) | AID 624464, 2012 | 360,000 compounds, 0.23% hits; active = potentiation of 50% or more; inconclusive = 30% to 50%; inactive = 30% or less;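 further: tested on top of an EC20 dose of dopamine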
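D2 cells co-treated with compound plus 50 nM dopamine (EC20) for 90 min at 37 deg C to detect potentiation. Beta-arrestin recruitment was read as enzyme-fragment luminescence after 1 h at ambient temperature. Full response was set by 57 uM dopamine.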
TRPML1 agonist: qHTS for Agonists of the Human Mucolipin Transient Receptor Potential 1 (TRPML1). TRPML1-expressing cells, Ca2+ dye fluorescence, FDSS; host cell line not named in the record; reference of the full effect not given here. activation, % (concentration not given with the values). 410,000 compounds, 0.12% hits; in the data active = activation above about 50%; inconclusive = about 30% to 50%; inactive = below about 30%; further: 0% is about no effect; the text of the record puts the active cut at 80%
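TRPML1-DL cells, Tet-induced overnight (~16 h, 37 degrees C), loaded 45-90 min at room temperature with Ca8 no-wash calcium dye plus quencher. FDSS fluorescence: 10 s baseline, compound pin-transfer, 110 s agonist read, then EC80 54-4 (4uM final) and 110 s antagonist read.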
Six1-Eya2 inh: qHTS Assay for Inhibitors of the Six1/Eya2 Interaction; Homeobox protein SIX1 (Homo sapiens) + Protein phosphatase EYA2 (Homo sapiens), …; AlphaScreen GST-Six1/His-Eya2 binding, biochemical; active compounds read low; control for the full effect not named in the record; activity change, % (concentration not given with the values); 360,000 compounds, 0.56% hits; in the data active = activity change below about -65%; inconclusive = about -30% to -65%; inactive = above about -30%; further: on the % scale 0 is the no-effect control and ±100 the full control effect
Target sequence (O00167 whole entry, looked up): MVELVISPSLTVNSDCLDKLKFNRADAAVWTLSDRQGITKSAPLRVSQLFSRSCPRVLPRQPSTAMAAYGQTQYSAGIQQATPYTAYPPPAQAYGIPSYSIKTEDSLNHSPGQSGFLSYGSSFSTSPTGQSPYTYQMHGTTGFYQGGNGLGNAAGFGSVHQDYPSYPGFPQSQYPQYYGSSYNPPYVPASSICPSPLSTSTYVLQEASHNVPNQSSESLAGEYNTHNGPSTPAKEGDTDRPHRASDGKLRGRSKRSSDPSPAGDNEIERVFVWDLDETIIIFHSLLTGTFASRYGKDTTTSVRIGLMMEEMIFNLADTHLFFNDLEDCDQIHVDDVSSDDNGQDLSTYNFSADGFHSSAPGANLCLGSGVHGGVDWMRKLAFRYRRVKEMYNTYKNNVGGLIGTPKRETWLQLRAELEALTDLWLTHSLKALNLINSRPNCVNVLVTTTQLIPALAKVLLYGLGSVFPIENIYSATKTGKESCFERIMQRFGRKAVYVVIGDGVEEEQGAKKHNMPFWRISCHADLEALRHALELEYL
Target sequence (Q15475 whole entry, looked up): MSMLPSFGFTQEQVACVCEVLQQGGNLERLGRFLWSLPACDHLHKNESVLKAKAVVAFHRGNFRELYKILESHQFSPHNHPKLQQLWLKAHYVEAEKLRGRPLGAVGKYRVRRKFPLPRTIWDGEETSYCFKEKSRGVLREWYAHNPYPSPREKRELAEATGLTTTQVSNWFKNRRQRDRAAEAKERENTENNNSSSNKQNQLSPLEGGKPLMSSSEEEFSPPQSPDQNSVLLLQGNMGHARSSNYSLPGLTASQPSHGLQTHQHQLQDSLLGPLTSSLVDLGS
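Compounds are tested against tagged Six1 and Eya2 proteins bridged by glutathione donor and nickel acceptor beads; after a one-hour incubation at 37 °C without light, AlphaScreen emission is recorded.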
D2 agonist: Beta-Arrestin HTS for Positive Allosteric Modulators of the Human D2 Dopamine Receptor: Agonists; activation, % (concentration not given with the values); D(2) dopamine receptor (Homo sapiens), P14416; 360,000 compounds, 0.084% hits; AID 624465, 2012; DiscoveRx PathHunter D2 beta-arrestin, luminescence, 90 min; 100% = 57 uM dopamine signal; in the data active = activation above about 40%; inconclusive = about 15% to 40%; inactive = below about 15%; further: the text of the record calls up to 30% inactive
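DiscoveRx PathHunter D2 beta-arrestin cells (2,100/well) attached overnight, then compound-stimulated 90 min at 37 C in HBSS/10 mM HEPES/0.1% Tween-20 buffer; beta-galactosidase complementation read by luminescence after 1 h at ambient temperature. Dopamine 57 uM final (EC100) as control.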
* = called active by the depositor; / = no result given; & = joins results of further samples; [ ] = dose if it differs, or a comment.

SMILES | TRPML1 inh | PINK1 modulator | D2 potentiator | TRPML1 agonist | Six1-Eya2 inh | D2 agonist
Cc1c(Cl)cccc1NC(=O)CNC(=O)C1CC(=O)N(C2CCCC2)C1 (stereo not given) | -4 | 2.6% | -5 | 0.0 | 5 | -1.2
Cc1cc(-c2nc3ccccc3s2)ccc1N | -15 | 4.3% | -6 | 0.5 | 9 | -1.4
CC1=C(C(=O)Nc2ccc(CC(=O)NCc3ccc(OC(C)C)cc3)cc2)SCCO1 | 5 | 15% | 1 | 0.3 | 1 | 2.2
O=C(Nc1ccccc1N1CCN(c2ccc(F)cc2)CC1)c1ccccc1 | 30 | 4.9% | 4 | -0.9 | 12 | -5.6
O=C(c1cccc(S(=O)(=O)N2CCOCC2)c1)N1CCOCC1 | 12 | 1.3% | 4 | 0.9 | 5 | 5.3
Cc1cc(C(=O)CN2CCCCC2)c(C)n1-c1ccc(F)cc1 | 7 | -1.6% | -9 | -0.1 | -19 | -1.3
CC1CN(S(=O)(=O)c2cccc(C(=O)Nc3cc(Cl)ccc3N3CCOCC3)c2)CC(C)O1 (stereo not given) | -12 | 2.0% | -3 | 0.5 | -5 | -1.6
Cc1cccc(-n2c(C)nc3ccsc3c2=O)c1 | 0 | -2.1% | -5 | 0.9 | 4 | -5.7
Cc1cc(C)c2nc3c(c(C(=O)O)c2c1)CCC3 | 6 | 2.1% | -2 | 0.1 | 6 | -2.1
Cc1ccc(C)n1-n1cnc2scc(-c3cccs3)c2c1=O | 1 | -1.6% | -3 | 1.9 | -11 | -1.2
CCCn1c2ccc(F)cc2c2nnc(SCCN3CCCCC3)nc21 | 9&-4 | 2.7%&0.9% | -22 | 1.6&2.3 | 7 | -8.5
NS(=O)(=O)c1ccc(NC(=O)COC(=O)CCC2CCCC2)cc1 | 4 | 0.3% | 1 | -0.9 | 1 | -1.6
Cc1ccc(S(=O)(=O)N2CCN(C(=O)CCCOc3cccc(C)c3)CC2)cc1 | 0 | -1.1% | -2 | 0.0 | -2 | -1.7
N#CCSc1nc2ccccc2c(=O)n1CCCC(=O)NCC1CCCO1 (stereo not given) | 15 | 0.1% | 2 | -0.6 | 9 | -3.3
Cc1cccc(N2CCN(C(=O)Nc3cn(CC(C)C)c(=O)c4ccccc34)CC2)c1C | -3 | -3.0% | / | 2.3 | / | /
CC1CCCCN1CCCNC(=O)c1ccc(Br)cc1 (stereo not given) | 9 | -1.9% | -13 | -0.1 | 0 | -3.7
COc1cc(/C=N/N=C(/N)c2nonc2N)cc(Br)c1OCc1ccccc1C | 44 | 5.4% | -4 | 1.7 | -7 | -1.9
CN(C)c1nc(-c2ccccc2)ncc1S(=O)(=O)c1ccccc1 | -11 | 0.5% | -10 | -0.3 | 7 | 0.0
CC1(C(=O)NS(=O)(=O)c2ccccc2)CCN1C(=O)Cc1cccs1 (stereo not given) | 8 | 2.9% | -8 | 0.2 | 8 | -3.4
Oc1c(Br)cc(Br)cc1/C=N/Nc1ccc(Cl)nn1 | -5 | 16% | -6 | -0.1 | -22 | -4.2
COc1cc(OC)c(NC(=O)CC(c2cccs2)N2Cc3ccccc3C2=O)cc1Cl (stereo not given) | 43 | -5.1% | / | 1.2 | / | /
Cn1nc(C(=O)N2CCN(S(=O)(=O)c3ccc(Cl)cc3)CC2)c2ccccc2c1=O | -6 | 2.8% | -9 | 0.0 | 0 | 1.5
CCc1ccc(NC(=O)c2ccc3c(c2)C(=O)N(CCOC)C3Nc2ccc(CC)cc2)cc1 (stereo not given) | 3 | 3.4% | 0 | -0.3 | 3 | 1.0
O=S(=O)(Oc1ccc(C(=S)N2CCOCC2)cc1)c1ccc(Cl)cc1 | 6 | -0.2% | -1 | 1.9 | -4 | -0.3
COc1ccc(N(CC(=O)Nc2ccc(F)cc2F)S(=O)(=O)c2c(C)nn(C)c2C)cc1 | -2 | -1.0% | -7 | 0.2 | 5 | -2.4
COCc1ccc(C(=O)N2CCC(CCC(=O)Nc3cccc(C)c3)CC2)s1 | -6 | 0.0% | -4 | 0.3 | 1 | 0.4
Oc1c(C(c2ccc(Cl)cc2)N2CCC3(CC2)OCCO3)sc2nc(-c3ccco3)nn12 (stereo not given) | 8 | 3.0% | / | 0.9 | / | /
O=C1CCCCC1(c1ccccc1)c1ccccc1 | 8 | 0.3% | -1 | 1.0 | 6 | -2.0
N/C(=N\OC(=O)Cc1ccc(-c2ccccc2)cc1)c1ccccn1 | 19 | 0.1% | 17 | 1.0 | -1 | -1.3
COc1cc2ccccc2cc1C(=O)NC1CCC(C)CC1 (stereo not given) | 23 | 3.3% | -2 | 3.6 | 10 | -1.5
COc1cc(NC(=O)c2ccc(Br)o2)ccc1NC(=O)c1ccccc1Cl | 8 | 1.5%[38.3 µM] | -8 | 0.1 | -16 | -0.6
O=C(O)C(S)C(S)C(=O)O (stereo not given) | -19 | 0.5% | -13 | 0.1 | 4 | -8.7
Cc1ccc(S(=O)(=O)N(C)C)cc1NC(=O)CSc1ccc2c(c1)OCCO2 | -18 | 0.0% | -22 | 0.0 | -2 | 1.5
CCOC(=O)c1cn(Cc2ccccc2)c2cc(C)nn2c1=O | 7 | 0.5% | 1 | -0.3 | -17 | -2.8
COc1ccc(-c2csc(N3C(=O)CNC3=S)n2)cc1 | 29 | 1.5% | -11 | 0.1 | -3 | -0.4
COc1cccc(CNS(=O)(=O)c2cc3[nH]c(=O)c(=O)[nH]c3cc2C)c1 | 13 | 3.3% | / | 4.1 | / | /
COc1ccc(NC(=O)CN(C)C(=O)CSc2ccc(Br)cc2)cc1 | 1 | -0.4% | -7 | -0.2 | -2 | -2.3
COc1ccc(OCC(O)CNC(=O)c2ccc(OC)cc2)cc1 (stereo not given) | -2 | -2.6% | -1 | 5.4 | -1 | -4.4
COc1ccc(/C=C\c2onc(C)c2S(=O)(=O)N2CCC(C(=O)Nc3cccc(OC)c3)CC2)cc1 | -18 | 0.6% | / | 2.9 | / | /
CCCCN(Cc1ccccc1)S(=O)(=O)c1ccc2[nH]c(=O)oc2c1 | 12 | 1.2% | -2 | 0.8 | -18 | -0.7
COc1ccc(CNC(=O)C2CCCN(S(=O)(=O)c3cc(C)ccc3OC)C2)cc1 (stereo not given) | 4 | 6.4%[38.3 µM] | -14 | 0.6 | -4 | -0.8
COc1cccc(C(c2sc3ncnn3c2O)N2CCN(C(=O)c3ccco3)CC2)c1 (stereo not given) | 9 | -0.6% | -7 | 0.3 | -3 | -2.1
CC1=C(C(=O)Nc2cccc(C(F)(F)F)c2)C(c2ccccn2)n2ncnc2N1 (stereo not given) | -25 | -2.8% | / | -0.2 | / | /
COc1cccc(C(=O)NCc2ccc3c(c2)OCO3)c1 | -5 | -1.6% | -4 | -0.2 | 10 | 3.3
CCCCNS(=O)(=O)CCNCc1ccco1 | -8 | -1.5% | -3 | -1.0 | 6 | -1.1
Cc1cc(NC(=O)c2cc(-c3ccc(OC(C)C)cc3)nc3ccccc23)no1 | 6 | 3.2% | -2 | -0.5 | 5 | 0.3
Cc1cc(SCC(=O)NC(=O)NCc2ccco2)nc2c(C)cccc12 | -4 | 24%[38.3 µM] | -14 | -0.4 | -9 | -1.5
CC1CCCN(C(=O)c2ccc3c(c2)OCCO3)C1 (stereo not given) | -6 | 0.6% | -4 | -0.4 | 1 | -5.4

Three entries already listed, sorted by length of the SMILES, highest first.
SMILES | TRPML1 inh | PINK1 modulator | D2 potentiator | TRPML1 agonist | Six1-Eya2 inh | D2 agonist
CC1(C(=O)NS(=O)(=O)c2ccccc2)CCN1C(=O)Cc1cccs1 (stereo not given) | 8 | 2.9% | -8 | 0.2 | 8 | -3.4
O=C(Nc1ccccc1N1CCN(c2ccc(F)cc2)CC1)c1ccccc1 | 30 | 4.9% | 4 | -0.9 | 12 | -5.6
COc1cccc(C(=O)NCc2ccc3c(c2)OCO3)c1 | -5 | -1.6% | -4 | -0.2 | 10 | 3.3

More entries
SMILES | TRPML1 inh | PINK1 modulator | D2 potentiator | TRPML1 agonist | Six1-Eya2 inh | D2 agonist
Cc1c(C(=O)N2CCC(N3CCSCC3)CC2)oc2c(F)cccc12 | -7 | -0.4% | -4 | 5.0 | -1 | -1.6
O=C(Nc1cccc(C(=O)N2CCCC2)c1)C1CCCC1 | -8 | 0.6% | / | -0.4 | 0 | -0.1
O=C(Nc1ccccc1F)C1CCN(C(=O)NC2CCCCC2)CC1 | 1 | 0.1% | 3 | 0.1 | 4 | -5.0
COCCN(C(=O)COC(=O)c1ccc(C)s1)c1c(N)n(Cc2ccccc2)c(=O)[nH]c1=O | 5 | -0.3% | -7 | 1.1 | 6 | 5.7
O=C(Nc1ccccc1)N1CCCN(Cc2ccccc2F)C1 | -2 | -1.3% | -26 | -0.3 | -2 | 0.9
O=C(NCCN1CCOCC1)c1c(O)nc2ccccn2c1=O | -17 | -1.2% | -2 | 0.0 | 18 | -1.7
COC(=O)[C@@H](N)CS | 2 | -0.7% | 4 | -0.4 | -20 | -2.0
O=C(CSc1ccsc1[N+](=O)[O-])N1CCCCCC1 | 5 | 1.7% | -5 | -0.8 | 20 | -4.3
CN(CC(=O)Nc1cccc(F)c1)C(=O)CCC1CCCCC1 | 38 | 0.8% | -14 | -0.7 | 8 | -3.7
CC(NC(=O)c1c(N)[nH]c(C(=O)c2ccccc2)c1-c1ccccc1Br)c1cccc2ccccc12 (stereo not given) | / | 1.3% | / | -0.6 | -10 | /
COC(=O)c1csc(-c2ccc(CO)o2)n1 | / | 1.0% | -5 | -0.2 | 2 | -4.0
OC(COC(c1ccc(F)cc1)c1ccc(F)cc1)CN1CCCC1 (stereo not given) | -21 | 1.9% | -13 | 1.8 | 7 | -4.2
Cc1ccc(CNC(=O)CN(c2ccc(C(C)C)cc2)S(=O)(=O)c2c(C)n[nH]c2C)cc1 | -12 | 0.9% | / | 0.3 | / | /
CCOC(=O)N1CCN(Cc2nc3c(c(=O)n(C)c(=O)n3C)n2Cc2ccccc2)CC1 | 19 | 0.7% | 2 | -0.3 | 13 | -5.6

Single records (already shown). Order of screens: TRPML1 inh | PINK1 modulator | D2 potentiator | TRPML1 agonist | Six1-Eya2 inh | D2 agonist
CN(CC(=O)Nc1cccc(F)c1)C(=O)CCC1CCCCC1 as listed: 38 | 0.8% | -14 | -0.7 | 8 | -3.7
COCCN(C(=O)COC(=O)c1ccc(C)s1)c1c(N)n(Cc2ccccc2)c(=O)[nH]c1=O as listed: 5 | -0.3% | -7 | 1.1 | 6 | 5.7
O=C(Nc1cccc(C(=O)N2CCCC2)c1)C1CCCC1 as listed: -8 | 0.6% | / | -0.4 | 0 | -0.1
O=C(Nc1ccccc1)N1CCCN(Cc2ccccc2F)C1 as listed: -2 | -1.3% | -26 | -0.3 | -2 | 0.9
COC(=O)[C@@H](N)CS as listed: 2 | -0.7% | 4 | -0.4 | -20 | -2.0
